Vaccinia Venus: vaccinia inhibition (Venus reporter); Vaccinia virus Venus reporter expression, fluorescence; Potency, µM (titrated, usually from 36.5 µM), inactives show top-dose activity change, negative = inhibition, usual class: inhibitors; actives 0.46% (n = 330,000); active means well fitted inhibition curve with a large enough effect; inconclusive means small, poorly fitted or top-dose-only effect; inactive means no such curve, though single readings can be large or run the other way; tested in A549 cells; further: nearly all actives have a fitted effect of over 30% in size; inactives centre near -10
VACV mCherry inh: vaccinia inhibition (mCherry reporter); Vaccinia virus mCherry reporter infection, fluorescence; about a quarter of the inactives have no number; Potency, µM (series often up to 36.5 µM), for the others: top-dose activity change, negative = inhibition, most hits filed as inhibitors; actives 0.63% (n = 310,000); AID 720579; active = well fitted inhibition curve with a large enough effect; inconclusive = small, poorly fitted or top-dose-only effect; inactive = no such curve, though single readings can be large or run the other way; tested in A549 cells; further: nearly all actives have a fitted effect of over 35% in size; inactives centre near -10
An asterisk follows results filed as active; i = inactive; ? = inconclusive; nt = no result given; & = joins results of further samples; [ ] = another dose, or the depositor's remark. On the % scale 0 is the no-effect control and ±100 the full control effect; potency means the concentration at half of the fitted maximal effect.

SMILES	Vaccinia Venus	VACV mCherry inh
CCC(=O)Nc1c(C#N)c2nc3ccccc3nc2n1-c1ccccc1C	-12%	-8%
O=C(NCCN1C(=O)C2C3C=CC(C3)C2C1=O)Nc1ccc(Br)cc1 (centres undefined)	-11%	-13%
O=C(OCn1ncc(Br)c(Br)c1=O)c1ccccc1Cl	?	?
CCN(C(=O)COc1ncnc2sccc12)c1ccccc1	-4%	-7%
O=C(NCc1ccccc1)C1CCN(S(=O)(=O)c2ccc3c(c2)CCCN3C(=O)C2CCC2)CC1	-15%	-17%
O=C(COC(=O)c1cn(-c2ccccc2)nc1-c1cccs1)NC1CC1	-20%	-2%
O=C(Nc1ccc(Cl)c(Cl)c1)N1CCC(c2ccccc2)C1 (centres undefined)	-9%	-2%
Cc1nnc(SCc2c(Cl)cccc2Cl)s1	-3%	nt
COc1ccc(N2C(=O)CSC2c2cccc(F)c2)c(OC)c1 (centres undefined)	-15%	-15%
CCC(=O)N1CCC1(C)C(=O)Nc1ccc(Cl)c(Cl)c1 (centres undefined)	-19%	-10%
COc1cc2cc(Oc3ccc4ccc(=O)oc4c3)c(=O)oc2cc1OC1OC(COC(=O)CC(C)(O)CC(=O)O)C(O)C(O)C1O (centres undefined)	-4%	-7%
Cc1ccc(OCC(=O)N2CCN(C(=O)c3cccc(F)c3)CC2)cc1	-20%	-15%
CCOc1cccc(C(=O)Nc2cccc(C(=O)NCC(C)C)c2)c1	-18%	-24%
O=C1OCCC1N1C(=O)c2ccccc2S1(=O)=O (centres undefined)	-6%	nt
O=C(NC(=O)c1cccc(F)c1)OC[C@@H]1CCCN2CCCC[C@H]12	-10%	-13%
CCN(CC)CCn1c2ccccc2c2nc3ccc([N+](=O)[O-])cc3cc21	-10%	-21%
O=C(c1cc2ccccc2oc1=O)N1CCC2(CC1)OCCO2	-10%	-7%
COC(=O)[C@@]12CCCCN1[C@H](c1ccc(SC3CCCCC3)c(OC)c1)[C@@H]1C(=O)N(C)C(=O)[C@@H]12	-21%	-7%
CC(=O)N1CCN(C(=O)COC(=O)CNC(=O)c2ccccc2C)CC1	-9%	-10%
CCOc1ccc(OCC)c(NC(=O)CSc2nc3cccnc3n2C)c1	-25%	i
O=C(CN1C(=O)c2cccc3cccc1c23)Nc1cccc(F)c1	18%	17%
CSc1ccccc1OCc1cc(C(=O)N2CCCC2c2nonc2C)no1 (centres undefined)	-24%	-11%
COc1ccc(OC)c(N(CC(=O)O)S(=O)(=O)c2ccc(OC)c(OC)c2)c1	-2%	-18%
CCOC(=O)c1sc(NC(=S)NC(=O)c2ccccc2Cl)c(C(=O)OCC)c1C	-5%	-7%
Cc1noc(C)c1CN(C(=S)NC1CC1)c1ccccc1	-14%	-20%
CCOc1ccc(/C(O)=C2/C(=O)C(=O)N(c3ncccn3)C2c2ccc(Cl)cc2)cc1 (centres undefined)	-21%	-4%
Cc1cc(C)c(NC(=O)c2cc3sc(Cl)cc3n2C)c(C)c1	-10%	-15%
COc1ccc([N+](=O)[O-])cc1NC(=O)CSCc1ccc(Br)cc1	-15%	-26%
Cc1nc(N)ncc1Sc1ccc(Cl)cc1	-11%	i
[O-]C(=C(C(=S)Nc1cccc2ccccc12)[n+]1cccc(CO)c1)c1ccc(Cl)s1	12%	i
CC(=O)NCCC(=O)Nc1cc(S(=O)(=O)N2CCCCC2)ccc1Oc1cccc(C)c1	-16%	-8%
CCOCCn1c(=O)c2c(nc3n2CCN3c2ccc(C)cc2)n(C)c1=O	-11%	-6%
CCOc1ccc(NS(=O)(=O)c2cc(C(=O)N3CC(C)OC(C)C3)ccc2C)cc1 (centres undefined)	-9%	-17%
Cc1ccc(-c2cn3c(n2)SCC3)cc1	3%	-9%
CCCOc1ccc(C(=O)CCC(=O)OCC(=O)N(C)c2c(N)n(Cc3ccccc3)c(=O)[nH]c2=O)cc1	-14%	i
Cc1nc(NC(=O)c2cc3ccccc3o2)sc1C	0%	19%
Cc1csc[n+]1CC(=O)c1ccc(I)cc1	-17%	-14%
COc1ccc(NC(=O)CN(C)C(=O)c2ccc3c(c2)OCCO3)cc1	-17%	-21%
C=CCc1cc(Cl)ccc1OCCOCCNC(C)(C)C	-19%	i
Cc1ccc2cc3c(nc2c1)OCC3	-11%	7%

Looked up by compound from the list above:
SMILES	Vaccinia Venus	VACV mCherry inh
Cc1ccc(-c2cn3c(n2)SCC3)cc1	3%	-9%
Cc1csc[n+]1CC(=O)c1ccc(I)cc1	-17%	-14%
COc1ccc(NC(=O)CN(C)C(=O)c2ccc3c(c2)OCCO3)cc1	-17%	-21%
O=C(CN1C(=O)c2cccc3cccc1c23)Nc1cccc(F)c1	18%	17%

(listing goes on)
SMILES	Vaccinia Venus	VACV mCherry inh
O=c1c2ccccc2cnn1Cc1n[nH]c(=S)n1-c1ccc(F)cc1	18%	-2%
COc1cccc(C(=O)C(CCC#N)c2ccccc2)c1 (centres undefined)	-11%	i
CCC1S/C(=N/N=C/c2ccco2)NC1=O (centres undefined)	-6%	-12%
O=C(Cn1c(=O)oc2cc(S(=O)(=O)N3CCc4ccccc43)ccc21)N1CCCCC1	-8%	i
CCc1cccc(NC(=O)CCC(=O)N2CCSc3ccccc32)c1	-14%	i
CCSc1oc(-c2ccc(F)cc2)nc1S(=O)(=O)c1ccc(C)cc1	-12%[7.34 µM]	-15%[7.34 µM]
COc1cc(C(C(=O)NC2CCCCC2)N(CCN2CCOCC2)C(=O)C2COc3ccccc3O2)cc(OC)c1OC (centres undefined)	-6%	-9%
O=C(Nc1ccc([N+](=O)[O-])cc1Cl)c1cc(Cl)ccc1O	?	?
Cc1nnc(SC(C)C(=O)Nc2ccc(S(=O)(=O)N3CCCCC3)cc2)s1 (centres undefined)	4%	7%
O=Cc1c[nH]c2ncccc12	-5%	i
Cc1ccc(NC(=O)Cn2c(-c3nonc3N)nc3ccccc32)cc1Cl	-10%	-4%
CCC(=O)c1cn([C@@H](CCC(OC)OC)CC(=O)OC(C)(C)C)cc1CC	-3%	i
O=c1[nH]nc(SCCS(=O)(=O)c2ccc(F)cc2)n1-c1ccccc1	2.2µM*	1.3µM*
CC(=O)N(c1ccccc1)c1nnc(-c2cnc(C)cn2)s1	6%	-20%
CCc1nc2ccc(C(=O)N3CCN(C(=O)c4ccco4)CC3)cn2c1N(C)Cc1nccn1C	-7%	38%[activator]
COC(=O)/C(=C\Nc1ccc(OC)cc1)NC(=O)c1ccc(Cl)cc1Cl	-24%	nt
O=c1[nH]c(CSc2nc3ccccc3[nH]2)nc2c1cnn2-c1ccccc1	-29%	?
CC1(C)Cc2c(cnn2-c2ccccc2)C(NC(=O)CCCN2CCCCC2=O)C1 (centres undefined)	-8%	-3%
CC(C)[C@H](N)C(=O)OCCOCn1cnc2c(=O)[nH]c(N)nc21	-17%&-18%	i
Cc1ccnc(NC(=O)c2cccc(S(=O)(=O)NCc3ccccc3)c2)c1	-20%	-3%
Cc1ccccc1OCC(=O)Nc1ccc2nc(SCC(=O)N(C)c3ccccc3)sc2c1	-20%	?
Cn1c(SCC(=O)NC2CCCCC2)nnc1-c1ccncc1	0%	i
O=C(Nc1nccs1)c1cc(-c2ccccn2)nc2c(Cl)cccc12	-6%	-16%
CCCCOP(=O)(c1ccc(N(C)C)cc1)C(O)c1ccc(N(C)C)cc1 (centres undefined)	-9%	i
COc1ccc2c(c1)CC(C(=O)Nc1cccc(C)c1C)CO2 (centres undefined)	-8%	-6%
Nc1nc(SCC(=O)Nc2cc(S(=O)(=O)N3CCOCC3)ccc2Cl)n[nH]1	0%	7%
CCN(C(=O)Cn1cnc2c1c(=O)n(C)c(=O)n2C)c1ccccc1C	-2%	-8%
N#Cc1ccc(C(=O)OCC(=O)Nc2ccc(N3CCOCC3)cc2)cc1	-4%	i
CCC(Sc1nc2ccncc2[nH]1)C(=O)Nc1ccc(F)cc1 (centres undefined)	-11%	-14%
NS(=O)(=O)c1cccc(NC(=O)COC(=O)CN2C(=O)c3ccccc3C2=O)c1	-5%	-13%
O=C(COC(=O)c1cccc([N+](=O)[O-])c1)Nc1ncc(Br)s1	1%	i
CCN(CC)C(=O)c1cccc(-c2csc(C(O)c3ccc(F)c(F)c3)n2)c1 (centres undefined)	-18%	12%
CC(Sc1nnc(-c2ccco2)o1)C(=O)Nc1ccc(OC(F)F)cc1 (centres undefined)	1%	-16%
Cc1onc(-c2ccccc2)c1C(=O)N1CCN(S(=O)(=O)c2ccc(Cl)cc2)CC1	1%	-20%
S=C1NC(c2ccccc2)=NCN1c1ccc(Br)cc1	-13%	-23%
COC(=O)c1ccccc1NC(=O)CSc1nnc(-c2ccoc2C)n1C	-2%	-12%
CC(=O)C1=C(C)Nc2ncnn2C1c1ccc(Cl)cc1Cl (centres undefined)	-16%	-22%
O=C(Nc1cccc(Cl)c1)c1cccnn1	-17%	-12%
Cc1cc(C)c(-c2cc(NC(=O)CSc3n[nH]c(N)n3)n(-c3ccccc3)n2)cc1C	?	nt
C#CC(C)(C)NC(=S)NC1CC2C=CC1C2 (centres undefined)	-15%	i

Arranged by molar mass (low to high): 3 of the compounds above
SMILES	Vaccinia Venus	VACV mCherry inh
CC(=O)C1=C(C)Nc2ncnn2C1c1ccc(Cl)cc1Cl (centres undefined)	-16%	-22%
S=C1NC(c2ccccc2)=NCN1c1ccc(Br)cc1	-13%	-23%
O=C(Nc1nccs1)c1cc(-c2ccccn2)nc2c(Cl)cccc12	-6%	-16%

Structural class: those above with a nitro group on carbon (4)
SMILES	Vaccinia Venus	VACV mCherry inh
CCN(CC)CCn1c2ccccc2c2nc3ccc([N+](=O)[O-])cc3cc21	-10%	-21%
COc1ccc([N+](=O)[O-])cc1NC(=O)CSCc1ccc(Br)cc1	-15%	-26%
O=C(Nc1ccc([N+](=O)[O-])cc1Cl)c1cc(Cl)ccc1O	?	?
O=C(COC(=O)c1cccc([N+](=O)[O-])c1)Nc1ncc(Br)s1	1%	i

Further records
SMILES	Vaccinia Venus	VACV mCherry inh
CCOC(=O)N1CCC2(CC1)C(C#N)=C(N)Oc1n[nH]c(CSc3ccc(C)cc3)c12	-14%	-22%
O=C(NCc1csc(-c2cccs2)n1)Nc1cccc(Cl)c1	-17%	-18%
CCc1noc(C)c1C(=O)NNC(=O)COc1ccc(C)c(C)c1	-19%	-4%
O=C(N/N=C/c1ccco1)c1cc(C2CC2)[nH]n1	-10%	-19%
Cc1ccc(-c2nn(CCC(=O)NC(C)C)c(=O)c3ccccc23)cc1	-18%	i
COC(=O)C(NC(=O)c1cccnc1Cl)C(C)C (centres undefined)	-3%	-13%
O=C(O)c1ccccc1C(=O)NC1CCCc2ccccc21 (centres undefined)	-3%	i
O=C(c1oc(=O)c2ccccc2c1-c1ccccc1)N1CCN(C2CCCCC2)CC1	11%	-7%
Nc1cc(-c2ccc(Br)cc2)nc2cc(-c3ccccc3)nn12	-21%	-16%
C=CCn1cnc2c(c1=O)c1nc3ccccc3nc1n2/N=C/c1cccc(OC)c1OC	-6%	-6%
CC1CC(C)(C)NC(=S)N1CCC(=O)NCCc1ccc(Cl)cc1 (centres undefined)	-7%	-7%
COc1ccc(-c2ccc3oc(-c4ccsc4)cc3c2)cc1	-8%	i
C[C@@H]1CN([C@@H](C)CO)C(=O)CCCn2nncc2CO[C@H]1CN(C)S(=O)(=O)c1ccc(Oc2ccccc2)nc1	-4%	-4%
O=S(=O)(NC1CCCCC1Oc1ccccc1)c1ccc(Cl)cc1 (centres undefined)	-2%	-16%
CCOc1ccc(CNCc2c(C(=O)O)n(Cc3ccccc3C)c3cc(OC)ccc23)cc1OC	-8%[7.34 µM]	-11%[7.34 µM]
CC(=O)c1ccc(-c2ccc(C(=O)NCC(c3ccco3)N(C)C)o2)cc1 (centres undefined)	-13%	i
Cc1ccccc1CNC(=O)C(C)n1nc(C)n2c(cc3occc32)c1=O (centres undefined)	-17%	-8%
COCCNC(=O)C1CCN(C(=O)c2cc3sccc3n2Cc2ccc(Cl)cc2)CC1	-27%	-21%
COc1ccc(-n2ncc(N(C)n3cccc3)c(Cl)c2=O)cc1	-2%	nt
Cc1noc(C)c1CSCC(=O)Nc1nc2ccc(S(C)(=O)=O)cc2s1	-5%	-10%

Of the compounds above, these have bromine:
SMILES	Vaccinia Venus	VACV mCherry inh
O=C(NCCN1C(=O)C2C3C=CC(C3)C2C1=O)Nc1ccc(Br)cc1 (centres undefined)	-11%	-13%
O=C(OCn1ncc(Br)c(Br)c1=O)c1ccccc1Cl	?	?
COc1ccc([N+](=O)[O-])cc1NC(=O)CSCc1ccc(Br)cc1	-15%	-26%
O=C(COC(=O)c1cccc([N+](=O)[O-])c1)Nc1ncc(Br)s1	1%	i
S=C1NC(c2ccccc2)=NCN1c1ccc(Br)cc1	-13%	-23%
Nc1cc(-c2ccc(Br)cc2)nc2cc(-c3ccccc3)nn12	-21%	-16%

Carrying on.
SMILES	Vaccinia Venus	VACV mCherry inh
COc1ccc(CNC(=O)COC(=O)CCC(=O)c2cccs2)cc1	-5%	i
O=C(CCN1C(=O)COc2ccccc21)NCCN1CCc2ccccc2C1	3%	26%
CC(C)C[C@H](NC(=O)c1[nH]cnc1C(=O)N[C@@H](C)C(=O)OCc1ccccc1)C(=O)OC(C)(C)C	-19%	i
Cc1ccccc1NC(=O)COC(=O)CN1C(=O)NC(C)(C)C1=O	-9%	-19%
COc1ccc(OC)c(CC(=O)NC(c2ccccc2)c2ccccc2)c1	-11%	-4%
COc1ccc(N2CCN(CC(=O)N3c4ccccc4CC3C)CC2)cc1 (centres undefined)	-6%	-26%
CNC(=O)/C(C#N)=C\c1ccc(CNS(=O)(=O)c2ccccc2)o1	-9%	-14%
Cc1c(S(=O)(=O)Nc2ccc3c(c2)OCCO3)cnn1C	-7%	-11%
CCCNC(=O)C1CCN(c2nc(C)cc(C)n2)CC1	-3%	-13%
